VDR inh – inhibitors of human vitamin D receptor. VDR-SRC2-3 peptide fluorescence polarization, 2 h. Potency, µM, for inactives: max response, negative = inhibition, usual class: inhibitors. 400,000 compounds, 0.93% hits. AID 504847; active = well fitted inhibition curve with a large enough effect; inconclusive = small, poorly fitted or top-dose-only effect, or another doubt; inactive = no such curve, though single readings can be large or run the other way; note: series mostly up to about 120 µM
Target sequence (P11473 whole entry, looked up): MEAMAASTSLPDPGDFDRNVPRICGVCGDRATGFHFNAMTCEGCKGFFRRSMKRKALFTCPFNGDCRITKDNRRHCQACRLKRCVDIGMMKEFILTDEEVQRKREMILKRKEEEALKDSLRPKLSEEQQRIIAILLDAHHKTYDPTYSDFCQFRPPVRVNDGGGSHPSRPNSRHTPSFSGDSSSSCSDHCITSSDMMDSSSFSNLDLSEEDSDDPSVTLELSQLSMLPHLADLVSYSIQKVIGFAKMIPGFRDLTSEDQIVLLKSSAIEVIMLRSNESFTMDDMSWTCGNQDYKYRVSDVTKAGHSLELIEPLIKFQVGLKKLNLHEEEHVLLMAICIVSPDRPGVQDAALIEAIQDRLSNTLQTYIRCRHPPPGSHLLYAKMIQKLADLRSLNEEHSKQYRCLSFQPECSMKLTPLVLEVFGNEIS
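After 23 nl compound addition and a short centrifugation, plates sat for 2 hours at ambient temperature; polarization of fluorescence then indicated loss of VDR binding to peptide SRC2-3.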
Numbers without * were called inactive; ? = inconclusive; & = joins results of further samples; ! = not active in a repeat; [ ] = dose if it differs, or a comment. % is set by controls: 0 for no effect and ±100 for the full control effect; potency is the fitted concentration of half-maximal effect. This is a subset; the hit share may differ from the screen's.

SMILES	VDR inh
Cc1nn(Cc2ccc([N+](=O)[O-])cc2)c(=O)n1-c1ccccc1	10.0%
O=C(NCc1ccco1)c1ccc(Cl)c(S(=O)(=O)N2CCc3ccccc32)c1	-5.4%
CC1CCN(C(=O)CSc2nc3ccccc3[nH]2)CC1	-2.2%
CCOC(=O)c1ccc(NCc2ccc(N(C)C)cc2)cc1	-13.8%
CCN(CC(=O)Nc1c(F)cccc1F)C(=O)c1nc2nccc(C)n2n1	109.3%[activator]
COc1ccc(NC(=S)N2CCN(C(=O)c3ccco3)CC2)cc1	14.9%
Cc1ccc2c(c1)N(CC(=O)NCCCN1CCCCC1C)C(=O)c1cccnc1O2 (stereo not drawn)	-13.6%&6.0%
O=C(CCCN1C(=O)/C(=C/c2ccco2)SC1=S)Nc1cccc(C(=O)O)c1	4.8%
O=C(CCc1nnc(Cc2ccc3c(c2)OCO3)o1)N(CC1CCC1)CC1CCCO1 (stereo not drawn)	-10.8%
O=C(CN1C(=O)S/C(=C/c2cccs2)C1=O)N1CCOCC1	-1.4%
Cc1cc(NC(=O)CSCC(=O)OC(C)C(=O)N(C)Cc2ccccc2)no1 (stereo not drawn)	1.6%
COc1ccc(S(=O)(=O)N2CCCC2)cc1C(=O)N1CCOCC1	-14.1%
CN(C(=O)COc1cc(=O)n(C)c2ccccc12)c1ccc(Cl)cc1	0.9%
CCOc1cc(C(c2c(C)[nH][nH]c2=O)c2c(C)[nH][nH]c2=O)ccc1OC(=O)c1cccc([N+](=O)[O-])c1	-15.1%
COc1ccc(C(=O)NCCn2cc(SCC(=O)Nc3ccccc3)c3ccccc32)cc1OC	12.7%
Cc1cc(C(=O)CSc2nc3ccccc3n2CCC#N)c(C)n1Cc1cccs1	15.0%
COc1ccccc1-c1nnc(SCC(=O)NNC(=O)c2ccccc2F)n1C	-5.1%
COCCN(CC(=O)Nc1cccc(C)c1C)C(=O)c1cc(S(=O)(=O)N2CCCC2)ccc1C	-4.8%
COc1cc(Cl)c(C)cc1NC(=S)NN	5.1%
FC(F)(F)c1cccc(/C=N/NC(=S)NC2CCCCC2)c1	-5.4%
[O-][N+](=C(c1ccccc1)c1ccccc1)c1ccccc1	6.2%
COc1ccc(S(=O)(=O)N2CCN(C(=O)C3CC3)CC2)cc1Br	-8.5%
O=C(NCC(O)c1ccccc1)Nc1cccs1 (stereo not drawn)	-18.2%
COc1cc2c(cc1OC)CN(C(=O)c1cc(S(=O)(=O)N3CCOCC3)ccc1Cl)CC2	-7.6%
O=C(Cc1ccc2c(c1)OCCO2)N/N=C/c1ccco1	1.3%
COc1ccc(C(=O)N(C)CC(O)c2ccccc2)cc1OC1CCN(C(C)=O)CC1 (stereo not drawn)	-12.3%
OCCC1CN(Cc2cnc(N3CCCC3)s2)CCN1Cc1ccccc1 (stereo not drawn)	-4.1%
Cc1cc(NC(=O)Cc2ccccc2C)no1	-3.8%
CCc1cc2c(=O)oc(-c3ccc(F)cc3)nc2s1	9.3%
Cn1c(=O)[nH]c(=O)c2c1nc(CN1CCOCC1)n2Cc1ccc(F)cc1	-8.2%
Cc1cc(-c2nnc(SCC(=O)Nc3ccccc3F)n2N)n[nH]1	-6.3%
CN(C)CCNC(=O)Nc1ccc([N+](=O)[O-])cc1	-16.8%
CC(=O)c1c(N2CCCCC2)nc(=S)n(Cc2ccccc2)c1C	-18.3%
O=S(=O)(c1cccc(Cn2nnc(-c3ccccc3)n2)c1)N1CCOCC1	9.3%
Cc1ccc(-n2nnnc2SCC(=O)Nc2ccc(N3CCN(C)CC3)cc2)c(C)c1	-8.0%
CCc1nnc(NS(=O)(=O)c2ccc(N/C=C\C(=O)c3ccc(C)cc3)cc2)s1	-5.8%
Clc1ccc(-c2nc3n(n2)Cc2ccccc2-3)cc1	-13.0%
COc1ccc(S(=O)(=O)N(CC(N)=O)C2CCCCC2)cc1Cl	-16.0%
CC(C)(C)OC(=O)NC(Cc1ccccc1)C(=O)O (stereo not drawn)	-9.8%
O=C(NCCNc1nccc(C(F)(F)F)n1)c1cccc(C(F)(F)F)c1	?
COc1ccccc1OCCn1cc(/C=C(\C#N)C(=O)NCc2ccco2)c2ccccc21	-15.1%
Cc1ccc(CNC(=O)c2c[nH]n3c(=O)c(Cc4ccc(Cl)cc4)c(C)nc23)cc1	-8.5%
CN(C)/C(CN1CCOCC1)=C1\N=C(c2ccccc2)OC1=O	-2.5%
CCCCN(CCCC)Cc1ccc(C(=O)NN)o1	-13.3%
Cc1ccc(C)c(NC(=O)CN(C)S(=O)(=O)c2cccc3cccnc23)c1	-19.8%&10.0%
COc1ccc(Br)cc1CNC(=O)c1cnc2sc(N3CCCC3)nn2c1=O	-0.8%
COc1ccc(C2=NN(C(=O)CCC(=O)O)C(c3ccc(OC)c(OC)c3)C2)cc1 (stereo not drawn)	5.1%
Cc1cccc(NC(=O)CSCc2cc(=O)n3nc(C4CC4)sc3n2)c1	-10.0%
CC(=O)c1ccc(N2CCN(C(=O)COc3ccc4c(c3)CCC4)CC2)cc1	2.0%
COc1ccc(NC(=S)N2CCN(C(=O)c3ccccc3)CC2)cc1	-4.4%
CC1=CC2=NC(=O)CC(C)(C(=O)N(CC(=O)NC(C)(C)C)Cc3cccs3)N2C=C1 (stereo not drawn)	9.9%
CN(C)C(=O)CCc1ccc2c3c([nH]c2c1)[C@]1(C)[C@@H](C(=O)N2CCCCC2)C[C@H](CC(=O)NCc2ccco2)C(=O)N1CC3	8.9%
CCC(=O)N1CCc2cc(S(=O)(=O)NC(CC(C)C)C(=O)N3CCc4ccccc43)ccc21 (stereo not drawn)	16.5%
Cc1ccc(C(=O)NCc2ccco2)cc1Br	-18.7%
NNC(=O)c1ccc(Cn2cccn2)o1	12.4%
CCOC(=O)c1c(C)n(C)c2ccc(O)c(S(=O)(=O)c3ccccc3)c12	8.0%
Cc1cccc(-n2c(SCC(=O)c3ccccc3)nnc2-c2ccc(Br)cc2)c1	3.1%
CN1C(C(=O)Nc2cccc(O)c2)=CC(c2cccs2)=NS1(=O)=O	1.5%&8.4%
O=C(COc1ccccc1)Nc1ccc(-c2nnc(-c3ccco3)o2)cc1	-3.2%
CCCN1C2CCCC1CC(NC(=O)NC1CCCCC1)C2 (stereo not drawn)	10.4%
Carrying on.
SMILES	VDR inh
COc1cccc(Oc2cn[nH]c2-c2ccc(OCC(=O)NN)cc2O)c1	-21.1%
O=C(CNc1cccc2ccccc12)N/N=C/c1ccc([N+](=O)[O-])o1	-15.8%
CC(C)C(=O)Nc1nnc2n1CCS2	4.8%
CCOc1ccc2c(c1)c(=O)c(S(=O)(=O)c1ccccc1)cn2CC(=O)Nc1ccccc1OC	-5.2%
CCOC(=O)c1cc(-c2ccc3c(c2)OCCO3)n[nH]1	13.6%
COc1ccc(S(=O)(=O)N2CCCCC2)cc1C(=O)NC1CCS(=O)(=O)C1 (stereo not drawn)	12.3%
CCC(CO)NCC(O)COCc1ccc2c(c1)OCO2 (stereo not drawn)	15.0%
O=C1c2ccccc2C(=O)N1C1C(=O)N2CCSC12C(=O)OCc1ccccc1 (stereo not drawn)	13.4%
N#Cc1cc2ccccc2nc1SCc1cccnc1	2.9%
Cn1nnnc1Sc1ncnc2scc(-c3ccc(C#N)cc3)c12	-17.3%
O=C(O)c1cc(NC(=O)C2CCCO2)cc(NC(=O)C2CCCO2)c1 (stereo not drawn)	12.6%
COc1cc(/C=C2\S/C(=N/S(=O)(=O)c3ccccc3)NC2=O)c([N+](=O)[O-])cc1OC	?
NS(=O)(=O)c1ccc(CCNC(=O)CNCCc2ccccc2)cc1	-8.2%
CCOC(=O)CC1=NN(c2ccccc2)C(=O)/C1=C\c1ccc(OC)cc1OC	50.1µM*
CS(=O)(=O)N1CCN(C(=O)Cc2ccccc2)CC1	-6.1%
CCCSc1nnc(Cn2c(=O)sc3ccccc32)n1C	-6.6%
O=C1C2CC=CCC2C(=O)N1n1cnnc1 (stereo not drawn)	-10.2%
CC(C)CNC(=O)CSc1nnc2ccccn12	-16.5%
O=S(=O)(NC1CC2CCC1C2)c1ccc2c(c1)OCCO2 (stereo not drawn)	1.2%
Cc1cc(Br)ccc1NC(=O)CN(C)C(=O)COc1cccc2c1OC(C)(C)C2	-4.2%
CC(=O)NCCNC(=O)CCCc1nnc2n(CC(C)C)c(=O)c3sccc3n12	0.2%
O=C(O)CC/C(=N/NC(=O)c1cn(-c2ccccc2)nc1-c1ccccc1)C(=O)O	-7.5%
Nn1c(Cc2ccc(Br)cc2)n[nH]c1=S	89.1µM*
Cc1ccc(NC(=O)CCC(=O)OCCCC(F)(F)C(F)(F)F)cc1	11.4%
C=CCn1c(CCNC(=O)c2ccccc2F)nnc1SCc1nc2ccccc2c(=O)[nH]1	7.1%
CCCC(=O)N(Cc1cc(=O)[nH]c2ccccc12)c1ccccc1OC	-11.4%
O=C(COc1cc(F)ccc1[N+](=O)[O-])Nc1ccc(N2CCCCC2)cc1	-3.0%
Cc1cc(C)c(S(=O)(=O)Nc2ccc3c(c2)CCC3)c(C)c1	11.7%
O=c1ccc(S(=O)(=O)N2CCCC2)cn1Cc1nc(-c2ccc(F)cc2)no1	0.4%
O=C(CNS(=O)(=O)c1ccc(Br)s1)N1CCCC1	-1.3%
Cc1ccc(C2Nc3ccccc3NC3=C2C(=O)CC(C)(C)C3)c(O)c1 (stereo not drawn)	-5.0%
CCc1c(C)sc(NC(=S)N2CCN(CC)CC2)c1C(=O)OC	-7.3%
Cc1nnc(Nc2ccccn2)c2ccccc12	-3.7%
NC(=O)c1ccc(-c2nnn(CC(=O)Nc3cccc(S(=O)(=O)N4CCCC4)c3)n2)cc1	-1.1%
O=C(N/N=C\c1cccc(Br)c1)c1ccccc1-n1cccc1	3.2%
O=C(CC(NS(=O)(=O)c1ccc(Cl)cc1)c1ccco1)NC1CCCC1 (stereo not drawn)	5.1%
COC(=O)C1(C(=O)OC)CC2=C[C@H](CC2=O)Cc2ccccc2[C@@H]1C[N+](=O)[O-]	50.1µM*!
O=C(NC1CCCCC1)n1c(=O)oc2cc(S(=O)(=O)N3CCCCC3)ccc21	-5.7%
O=C(Nc1nnc(SCc2ccccc2)s1)c1ccco1	-3.7%
CC(=O)N1CCCN(C(=O)c2ccc3nc(Cc4cccc(Cl)c4)oc3c2)CC1	?
CC1CC(C)(C)CC2(C1)NC(=O)N(CC(=O)N1CCN(S(=O)(=O)c3cccs3)CC1)C2=O (stereo not drawn)	-16.6%
COc1ccc(C(=O)NC(C(=O)NCC2(N3CCCCC3)CCCCC2)C(C)C)cc1 (stereo not drawn)	-13.3%
COc1ccccc1NS(=O)(=O)c1cc(NC(=O)c2ccccc2C)ccc1N1CCOCC1	-17.9%
O=C(Nc1ccncc1)c1ccc(Br)cc1	-10.8%
CCc1nonc1NC(=O)c1oc2ccc(F)cc2c1C	3.8%&-5.4%
CCc1cc(CN2CCOCC2)c(NC(=O)c2ccccc2)s1	-20.2%
O=C(C1=C[C@H](C2CC2)C[C@H](OCCCCO)O1)N1CCN(Cc2ccccc2)CC1	-3.4%
CCNc1c(NCC)c(=O)c1=O	0.4%
COc1cccc(OCCSc2nc(N)cc(N)n2)c1	-6.0%
COc1ccccc1CN1CC(C(=O)NCc2nc3ccccc3n2C)CCC1=O (stereo not drawn)	-10.5%
CC(C)(C)[C@@H]1COC(=O)[C@@H](Cc2ccc(F)cc2)C/C=C\C[C@H](CC(=O)N(CCO)Cc2ccccc2)C(=O)N1	3.2%
CCOc1ccc(OCC)c(NC(=O)c2cnn(-c3ccc(F)cc3)c2-n2cccc2)c1	-13.2%
Cn1c(SCC(=O)Nc2nc(C(C)(C)C)cs2)nnc1C1CC1	-17.1%
CCC1CCCCC1	9.7%
CC[C@]1(C(=O)OC)[C@H]2C(=O)N(Cc3ccccc3)C(=O)[C@H]2[C@H]2CN=C(SCc3ccc(C#N)cc3)N21	-18.3%
Cc1oc(-c2cccc(Br)c2)[n+]([O-])c1C	-5.4%
CC(C)CN(CC(C)C)C(=O)CN1c2cccc3cccc(c23)S1(=O)=O	12.0%
COc1ccc2cc(CN(CC3COCCO3)S(=O)(=O)c3ccccc3)c(=O)[nH]c2c1 (stereo not drawn)	-1.7%
CCSc1nc(O)c(C(c2cccc(OC)c2)c2c(O)nc(SCC)[nH]c2=O)c(=O)[nH]1	?
CC(C)(C)c1ccc(C(=O)N/N=C2\C3CN4CCN(C3)CC2(c2ccccc2)C4)cc1	-0.9%
Further results follow:
SMILES	VDR inh
CC(=O)N1CCOc2ccc(S(=O)(=O)NCCc3cccc(C)c3)cc21	-11.6%
COc1ccc(OC)c(S(=O)(=O)N2CCCC(C(=O)NCc3cccnc3)C2)c1 (stereo not drawn)	-0.4%
COc1ccc(N(C)S(=O)(=O)c2cccc(C(=O)OCC(=O)NCc3ccccc3OC)c2)cc1	-19.5%
CCOC(=O)N1CCN(CC(=O)Nc2cc(OC)c(OC)cc2C#N)CC1	-6.4%
